# Compound activity (PubChem BioAssay)
# VDR inhibitor: vitamin D3 receptor (human) inhibition; AID 504847; VDR-SRC2-3 peptide fluorescence polarization, 2 h; P11473; Potency, µM, without a hit: max response, negative = inhibition, hits mostly inhibitors; actives 0.93% (n = 400,000); active = well fitted inhibition curve with a large enough effect; inconclusive = small, poorly fitted or top-dose-only effect, or another doubt; inactive = no such curve, though single readings can be large or run the other way; note: series mostly up to about 120 µM
# Target sequence (P11473 whole entry, looked up): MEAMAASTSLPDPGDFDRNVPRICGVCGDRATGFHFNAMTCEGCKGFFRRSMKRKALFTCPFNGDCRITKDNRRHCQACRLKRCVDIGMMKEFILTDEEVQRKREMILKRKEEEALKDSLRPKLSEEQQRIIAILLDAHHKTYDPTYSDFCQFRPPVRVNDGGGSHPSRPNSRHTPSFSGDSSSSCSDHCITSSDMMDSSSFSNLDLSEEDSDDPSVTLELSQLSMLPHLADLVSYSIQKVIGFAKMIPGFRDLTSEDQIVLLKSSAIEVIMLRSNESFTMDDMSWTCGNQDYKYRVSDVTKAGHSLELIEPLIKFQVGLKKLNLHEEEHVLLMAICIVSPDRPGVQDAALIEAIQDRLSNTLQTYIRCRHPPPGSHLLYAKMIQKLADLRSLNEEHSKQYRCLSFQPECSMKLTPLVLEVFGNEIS
#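 Compounds are added to VDR with labelled SRC2-3 coactivator peptide and held 2 h at room temperature. Inhibition of the VDR–peptide interaction is then read as a change in fluorescence polarization.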
# * marks the source's active call; other numbers are inactive results; ? = inconclusive; & = joins results of further samples; [ ] = remark or other dose. % is set by controls: 0 for no effect and ±100 for the full control effect; potency is the fitted concentration of half-maximal effect. A portion of the library; the hit share may differ from the screen's.
SMILES,VDR inhibitor
COc1nc(OC)nc(Oc2ccc(Cl)cc2[N+](=O)[O-])n1,-19%
Cc1csc2nc(O)c(C(=O)NCCC3=CCCCC3)c(=O)n12,-8%
Cc1ccc(NC(=O)CCC(=O)OCC(=O)c2ccc(Oc3ccc([N+](=O)[O-])cc3)cc2)c(C)c1,13%
Cc1cc(CNC(=O)Cc2ccccc2)c2ccccc2n1,-3%
CSc1ncc(CN2CCCC(C(=O)c3ccc(C(C)(C)C)cc3)C2)cn1 (stereo unspecified),-6%
COCCN(C(=O)c1ccc(N(C)S(=O)(=O)c2ccc(C)cc2)cc1)c1c(N)n(CC(C)C)c(=O)[nH]c1=O,12%
C=CCn1c(SCC(=O)NC2CCCc3ccccc32)nnc1-c1ccncc1 (stereo unspecified),-3%
O=C(c1ccc2c(c1)OCO2)N1CCN(c2ccccn2)CC1,?
Cc1ccc(-c2csc(-c3nc(-c4ccc(Br)s4)cs3)n2)cc1,-10%
CNc1ccc(Cl)cc1C(N)=O,21%
Cc1ccc(C(C)C)c(OCC(=O)Nc2ccc3c(c2)nc(CN2CCCC2)n3C)c1,-17%
O=C(Nc1cccc(C(F)(F)F)c1)c1cncs1,-22%
CCc1ccc(CN2CCCC(CNC(=O)c3cccc(OC)c3OC)C2)cc1 (stereo unspecified),13%
CS(=O)(=O)/C(C#N)=C/c1c(-c2ccccc2)nc2n1CCS2,-9%
COc1cc(OC)cc(C(=O)Nc2cccc(NC(=O)c3cc(OC)cc(OC)c3)n2)c1,-17%
CC(=O)c1cnc(-c2ccccc2)s1,-3%
COc1ccc(-c2csc(NC(=O)CSc3ccc(Br)cc3)n2)c(OC)c1,-13%
COc1ccc2nc(NC(=O)c3cccc(N4C(=O)CCC4=O)c3)sc2c1,-14%
COc1ccccc1CNC(=O)CCCCn1c(=O)c2ccccc2n(CC(=O)Nc2cccc(Cl)c2)c1=O,-11%
COc1ccccc1N1CCN(C(=O)C2CCCN(S(=O)(=O)c3ccc4c(c3)oc(=O)n4C)C2)CC1 (stereo unspecified),1%&4%
Cc1ccc(NC(=O)C(Cc2ccccc2)NS(=O)(=O)c2cccs2)cc1Cl (stereo unspecified),-14%
COC(=O)c1[nH]c2ccc(C)cc2c1NC(=O)C(C)N1CCN(C2CCCCC2)CC1 (stereo unspecified),10%
COc1ccc([C@H]2CC(=O)C=C(c3ccnc4ccc(Cl)cc34)C2)cc1,-14%
CCOC(=O)C(C(=O)Nc1nc2ccccc2s1)C1CCCCC1 (stereo unspecified),2%
Cc1ccc(C(=O)O)cc1S(=O)(=O)Nc1ccccc1C(=O)NC1CC1,-3%

# Random excerpt: 3 entries already listed, in no set order.
SMILES,VDR inhibitor
Cc1ccc(C(=O)O)cc1S(=O)(=O)Nc1ccccc1C(=O)NC1CC1,-3%
COCCN(C(=O)c1ccc(N(C)S(=O)(=O)c2ccc(C)cc2)cc1)c1c(N)n(CC(C)C)c(=O)[nH]c1=O,12%
C=CCn1c(SCC(=O)NC2CCCc3ccccc32)nnc1-c1ccncc1 (stereo unspecified),-3%

# Remaining list, next part.
SMILES,VDR inhibitor
O=C(CN1C(=O)c2ccccc2C1=O)N1CCN(c2nnc(-c3ccccc3)c3ccccc23)CC1,18%
COc1ccc(OC2C(=O)N(Cc3ccc(F)cc3)C2c2cc(OC)c(OC)c(OC)c2)cc1 (stereo unspecified),?
Cc1cc(NCCN2CCOCC2)c2ccc3ccccc3c2n1,35%[activator]
O=C(c1ccco1)N1CCN(c2ncnc3c(-c4ccccc4)nsc23)CC1,3%
Cc1ccc(NC(=O)Nc2cn(CC(C)C)c(=O)c3ccccc23)cc1N(C)C,4%
O=C(CNC(=O)c1ccccc1O)N/N=C/c1cc(Br)ccc1OC(=O)/C=C/c1ccco1,23%
CC(C)[C@H](NC(=O)N1c2ccccc2NC(=O)[C@@H]1C(C)C)C(=O)N1CCC[C@H]1C(=O)O,-27%
COc1cc(/C=N/NC(=O)c2cccc3ccccc23)ccc1OCC(N)=O,3%
Cc1ccccc1C(=O)NCC(=O)NNC(=O)CCN1CCN(c2ccccc2)CC1,16%
O=C(CN(c1ccc([N+](=O)[O-])cc1)S(=O)(=O)c1ccccc1)N1CCCCC1,-10%
COc1ccc(Cl)cc1N1CCN(CCNC(=O)Nc2ccccc2C)CC1,26%
CC(C)Oc1ccc(N2CC(C(=O)OCC(=O)NCc3ccccc3)CC2=O)cc1 (stereo unspecified),13%
CCOc1ccc(C2C(C(=O)OC)=CN(CCOC)C=C2C(=O)OC)cc1,9%
O=C(c1ccccc1)c1ccccc1C(=O)c1ccccc1,-4%&-9%
Cc1cc(Nc2cccc(F)c2)n2nc(-c3ccco3)nc2n1,-5%
CCCCN(CCCNC(=O)C1CCCN(S(=O)(=O)CC)C1)Cc1ccccc1 (stereo unspecified),7%
CCCCCn1c(=O)c(C(=O)OCC)c(O)c2ccccc21,-8%
Cc1cc(C)cc(OC(=O)c2snnc2C)c1,-9%
Cc1oc(-c2cccc(Cl)c2)nc1CN1CCC(C(=O)N2CCN(c3ccccn3)CC2)CC1,3%
Cc1oc2ccc(O)c(CN(C)C)c2c1C(=O)c1ccccc1,31%[activator]
Cc1cccc(NC(=O)CSc2nc(COc3ccccc3)nc3ccccc23)c1C,-7%
COc1ccc(OCC(=O)Nc2cccc(C(=O)Nc3ccccc3C(=O)O)c2)cc1,3%
O=C(CSc1nnc(SCc2cccc3ccccc23)s1)N/N=C/c1c[nH]c2ccccc12,-18%
CCc1ccccc1NC(=O)Cn1ccn(Cc2ccccc2)c(=O)c1=O,2%
Cc1ccc(NC(=O)Cn2c(=O)n(Cc3ccco3)c(=O)c3sc4ccccc4c32)cc1C,-3%

# In another format: results already given
SMILES | VDR inhibitor
Cc1oc(-c2cccc(Cl)c2)nc1CN1CCC(C(=O)N2CCN(c3ccccn3)CC2)CC1 | 3%
O=C(CSc1nnc(SCc2cccc3ccccc23)s1)N/N=C/c1c[nH]c2ccccc12 | -18%
Cc1oc2ccc(O)c(CN(C)C)c2c1C(=O)c1ccccc1 | 31%[activator]
COc1ccc(Cl)cc1N1CCN(CCNC(=O)Nc2ccccc2C)CC1 | 26%

# Remaining list, next part:
SMILES,VDR inhibitor
CC(C)(CCc1ccccn1)C(=O)CCCc1ccccn1,11%
Cc1cccc(C)c1OCC(=O)NNC(=O)Nc1ccc(Cl)cc1,-9%
Cc1noc(C)c1C(=O)N1CCC2(CC1)CCN(c1cccc(-c3ccccc3)c1)CC2,-13%
O=C(/C=C/c1ccc([N+](=O)[O-])cc1)N1CCN(Cc2ccccc2)CC1,5%
Cc1cccc(CNc2nc(-c3ccc(C(=O)N(C)C)cc3)nc3ccccc23)c1,-13%
COc1ccc(NC(=O)CC2CCCC2)cc1OC,-19%
CCC(C)c1ccc(S(=O)(=O)N2CCN(CC(O)CN3CCOCC3)CC2)cc1 (stereo unspecified),8%
COc1ccc(CNC(=O)CCSCc2cccc(Cl)c2)c(OC)c1,6%
Cc1cccc(NC(=O)NNC(=O)COc2ccc(Cl)cc2)c1,8%
CCc1ccc2occ(CC(=O)Nc3c(C(=O)c4ccc(F)cc4)oc4ccccc34)c2c1,2%
COc1ccccc1NC(=O)CSc1nnc(N)s1,3%
CC1CCCN(C(=O)Cn2ncc3c([nH]c4ccccc43)c2=O)C1 (stereo unspecified),7%
COc1ccc(NC(=O)C2CCCN2S(=O)(=O)c2cccs2)c([N+](=O)[O-])c1 (stereo unspecified),5%
CC(=O)N(Nc1ccccc1)c1ccccc1,-7%
O=C(c1ccccc1)c1cncc(Br)c1,10%
Cc1ccccc1Nc1oc(-c2ccccc2)nc1-c1cccs1,4%
FC(F)(F)c1ccc(C2[C@H]3CN(CC4CCCCC4)[C@H](c4ccccc4)C34CC2(c2cccnc2)C4)cc1 (stereo partly specified),-11%
O=C(N/N=C/c1c(F)c(F)c(F)c(F)c1F)c1cc(-c2ccccc2)nc2ccccc12,14%
COc1ccc(CCC(=O)NCc2nc3cccnc3n2Cc2cccc(OC)c2)cc1,3%
O=C1CCCCC1C(Nc1ccc(Cl)cc1)c1ccccc1 (stereo unspecified),0%
CCCCN(C)C(=O)Cc1c(OC)ccc2cc(Br)ccc12,22µM*
COC(=O)/C(=C/N(C)C)C(=O)N1CCN(c2ccc(Cl)c(Cl)c2)CC1,-12%
CCCCC(=O)Nc1nnc(SCC(=O)NCC2CCCO2)s1 (stereo unspecified),-14%
Cc1ccc(Nc2nc(C)cc(C)c2C(N)=O)cc1,2%
O=C(COC(=O)c1ccc2ncsc2c1)NC(=O)C1CCCCC1,-8%

# In a second layout: results already given
COc1ccc(CNC(=O)CCSCc2cccc(Cl)c2)c(OC)c1
  VDR inhibitor: 6%

Cc1cccc(NC(=O)NNC(=O)COc2ccc(Cl)cc2)c1
  VDR inhibitor: 8%

CCc1ccc2occ(CC(=O)Nc3c(C(=O)c4ccc(F)cc4)oc4ccccc34)c2c1
  VDR inhibitor: 2%

COc1ccccc1NC(=O)CSc1nnc(N)s1
  VDR inhibitor: 3%

# (list continues)
SMILES,VDR inhibitor
COc1ccc(CNC(=O)c2cc3ccccc3o2)cc1OC,7%
OC(COc1ccccc1CNCc1cccnc1)CN1CCc2ccccc2C1 (stereo unspecified),-3%
COc1ccc([C@]2(C(C)C)ON(c3ccccc3C(F)(F)F)C2=O)cc1,2%
CCOC(=O)c1ccc(NC(=S)N2CCC(O)CC2)cc1,-22%
COc1nc(N(C#N)CC(N)=O)nc(N2CCCC2)n1,4%
CCOC(=O)c1[nH]c(C)c(C(=O)Nc2ccc(C)c(C)c2)c1C,-10%
CC(C)CN1CCc2nc(N3CCN(c4ncccn4)CC3)ncc2C1,19%
Cc1cc(C)c2c(CC(=O)NCc3ccco3)coc2c1,0%
CC#CC#Cc1cccc(=O)o1,-7%
CCn1c(SC(C)C(=O)Nc2ccc(N3CCOCC3)cc2)nnc1-c1ccco1 (stereo unspecified),-7%
O=C1C=C(c2cccc(Br)c2)C[C@@H](c2ccc(Cl)cc2)C1,-24%
COc1cccc(C2/C(=C(\O)c3ccc4c(c3)OCCO4)C(=O)C(=O)N2Cc2cccnc2)c1 (stereo unspecified),-7%
CC(=O)c1cccc(NC(=O)C2CC(=O)N(C3CCCC3)C2)c1 (stereo unspecified),-12%
Cc1nc2c(nnn2Cc2ccccc2)c(=O)n1-c1ccccc1,6%
COc1ccc(-c2ccc(/C=C3/C(=N)N4C(C)=CSC4=NC3=O)o2)c([N+](=O)[O-])c1,-19%
O=C(CSc1nnc(CNC(=O)c2ccccc2F)o1)NC1CCCC1,-9%
O=C(CSc1ncc2c(n1)-c1ccccc1N(Cc1ccc(F)cc1)S2(=O)=O)c1ccc(Cl)cc1,2%
CCOC(=O)C(C)NC(=O)C(NC(=O)C1CCC(CC)CC1)C(C)C (stereo unspecified),19%
Cc1ccc2ncc(C(=O)NCCc3ccc(S(N)(=O)=O)cc3)c(=O)n2c1,-8%
CC(=O)OCC(CO)OC(C)=O (stereo unspecified) (tested in a mixture with another compound),-1%
CC(C)CN1CCC(=O)N([C@H](CSc2ccc(Br)cc2)Cc2ccccc2)CC1,?
CC(=O)O/N=C/c1c(C)c(C=O)n2ccccc12,10%
CNC(=O)N(O)C1N(/N=C/c2ccccc2O)C(=S)SC1(C)C (stereo unspecified),-3%
Cc1nc(SCC(=O)N2CCC(Cc3ccccc3)CC2)[nH]c(=O)c1C,-27%
CCCN1C(=O)C2(c3ccccc31)c1c(oc3cc(C)c(C)cc3c1=O)C(=O)N2CCCOC (stereo unspecified),3%
# Additional results
SMILES,VDR inhibitor
COc1cccc(C(=O)NCCSc2c(-c3ccc(F)cc3)[nH]c3ccccc23)c1OC,-22%
COC(=O)c1ccc(N2CCOCC2)c(NC(=O)c2ccc3c(c2)OCO3)c1,5%
Cc1ccc(S(=O)(=O)N2CCCC2)cc1C(=O)NCc1ccccn1,-23%
CCOc1ccc(C(=O)NCc2cccs2)cc1,-16%
O=C(CSc1nc2ncccc2[nH]1)NC1CCCC1,-15%
CCOC(=O)c1c(-c2ccccc2)oc2cc(Br)c(O)cc12,28%
CCOC(=O)C1(Cc2ccccc2)CCCN(Cc2ccccn2)C1 (stereo unspecified),-13%
S=C(NCc1cccs1)Nc1ccc(Cl)cc1,-10%
CNC(=O)C(=O)NCC(c1cccs1)S(=O)(=O)c1ccc(C)cc1 (stereo unspecified),4%
Cc1noc(NS(=O)(=O)c2ccc(NC(=O)c3cc4ccccc4o3)cc2)c1C,-22%
Cc1ccc2c(c1)OC(=O)CC2c1ccccc1 (stereo unspecified),-14%
O=C(CN1CCC(C(=O)c2ccc(F)cc2)CC1)Nc1ccccc1Cl,4%
Cc1cc(C(=O)NC2CCCc3c2cnn3-c2cccc(C)c2C)no1 (stereo unspecified),-12%
CSCC(=O)N1CCCC(C(=O)c2cc(F)ccc2F)C1 (stereo unspecified),-9%
CC(OC(=O)c1ccc(Cl)cc1O)C(=O)NCCC1=CCCCC1 (stereo unspecified),-12%
COC(=O)c1c(NC(=O)Cc2coc3ccc(C(C)C)cc23)sc2c1CCC2,15%
C=CCC(Nc1ccccc1)C12C=CC(O1)C(C(=O)OC)=C2C(=O)OC (stereo unspecified),?
O=C(COC(=O)c1ccccc1O)NCc1ccccc1Cl,-11%
O=C(NCc1cccs1)C1CCC(CNS(=O)(=O)c2cccc3nsnc23)CC1 (stereo unspecified),-22%
O=C(O)C1C2CCCCC2=C2CCCCC2C1C(=O)Nc1nccs1 (stereo unspecified),-16%
Cc1cccc(C(=O)Nc2cccc(-c3ccc4nncn4n3)c2)c1,6%
CCOC(=O)Cc1c(C)nc2c(-c3ccccc3)c(C)[nH]n2c1=O,2%
COc1ccc(/C(N)=N/OC(=O)CCCN2C(=O)c3ccccc3C2=O)cc1OC,?
CC(=O)c1ccc(OCC(O)CN2CCCC(C)C2)cc1 (stereo unspecified),-14%
